MARV entry inh – blocks Marburg virus binding to or entry into cells. Marburg virus pseudotyped entry inhibition, cell reporter; control for the full effect not named in the record; about a third of the inactives were read at about 46 µM. Potency, µM (titrated, usually from 37.8 µM), without a hit: at the top dose activity change, negative = inhibition, hits mostly inhibitors. 1.8% of 300,000 active; active = well fitted inhibition curve with a large enough effect; inconclusive = small, poorly fitted or top-dose-only effect, or effect the other way; inactive = flat fitted curve, though single readings scatter; tested in HEK293 cells; about a fifth of its hits are not listed in these tables; also: % is scaled to controls: 0 for no effect and ±100 for the full control effect; luciferase read-out
NS1 inh – inhibitors of influenza NS1 protein function; S. cerevisiae slowed by influenza A NS1, growth recovery by OD600; Potency, µM (top dose mostly 46.1 µM), for inactives: at the top dose activity, positive = more growth; 0.4% of 270,000 active; active means well fitted rising curve with a large enough effect; inconclusive means small, poorly fitted or top-dose-only effect; inactive means no such curve, though single readings can be large or run the other way; also: nearly all actives have a fitted effect of over 50% in size
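In this qHTS, NS1 from influenza A is expressed in budding yeast, where it slows growth. Cells are switched from glucose to 2% galactose medium (pH 6.0, -URA), treated with compound, and growth recovery is read at OD600.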
SARS PLpro yeast – SARS-CoV PLP inhibition in yeast | S. cerevisiae expressing SARS-CoV PLpro, growth rescue; control for the full effect not named in the record | Potency, µM (series often up to 32.9 µM), inactives show top-dose activity, positive = growth rescue | AID 485353 | 0.19% of 330,000 active; active means well fitted rising curve with a large enough effect; inconclusive means small, poorly fitted or top-dose-only effect; inactive means no such curve, though single readings can be large or run the other way; also: 0% is about no effect; nearly all actives have a fitted effect of over 55% in size; growth read by luminescence after 48 h
Cruzain inh Det – inhibitors of Trypanosoma cruzi cruzain with detergent; Potency, µM, inactives show max response, negative = inhibition, hits mostly inhibitors; 0.43% of 200,000 active; AID 1478; P25779; purified cruzain, Z-FR-AMC fluorescence, 0.01% Triton;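 also: plate controls were neutral wells for no effect and buffer without enzyme for full effect; nearly all actives have a fitted effect of over 40% in size; top concentration of the series not given in the record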
Target sequence (P25779 123-467 limits assumed): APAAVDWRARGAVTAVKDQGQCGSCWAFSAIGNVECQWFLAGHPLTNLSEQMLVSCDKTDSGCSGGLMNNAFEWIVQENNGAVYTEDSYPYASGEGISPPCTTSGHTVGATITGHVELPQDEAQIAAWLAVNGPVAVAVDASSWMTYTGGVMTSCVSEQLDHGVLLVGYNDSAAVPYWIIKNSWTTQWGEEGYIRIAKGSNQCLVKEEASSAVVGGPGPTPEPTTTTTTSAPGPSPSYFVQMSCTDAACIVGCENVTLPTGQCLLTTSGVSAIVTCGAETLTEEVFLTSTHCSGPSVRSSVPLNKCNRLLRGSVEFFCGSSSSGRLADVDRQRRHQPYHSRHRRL
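Cysteine protease activity tested under reducing, mildly acidic conditions (100 mM sodium acetate pH 5.5, 5 mM DTT) plus 0.01% Triton X-100. Cruzain 1.5 nM; substrate Z-FR-AMC 2 uM; 15 min compound preincubation at room temperature.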
RE007 growth inh – less growth of the S. pombe RE007 Vpr strain. S. pombe RE007 Vpr strain, BacTiter-Glo ATP luminescence, 24 h; control for the full effect not named in the record. Potency, µM (doses to about 92.2 µM), for inactives: at the highest dose activity change, negative = less growth. 0.21% of 360,000 active. AID 651644; active = well fitted falling curve with a large enough effect; inconclusive = small, poorly fitted or top-dose-only effect; inactive = no such curve, though single readings can be large or run the other way;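 also: % is scaled to controls: 0 for no effect and ±100 for the full control effect; nearly all actives have a fitted effect of over 50% in size; the assay follows cell death caused by Vpr and the record does not say whether a fall means rescue or toxicity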
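Fission yeast RE007 carrying one integrated HIV-1 vpr copy, seeded at OD 0.01 in PMG+AL medium with 23 nL pinned compound. Grown 24 h at 30 degrees; viability read by BacTiter-Glo luminescence after 5 min.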
LASV entry inh – blocks Lassa virus binding to or entry into cells | Lassa virus pseudotype entry inhibition, cell reporter; control for the full effect not named in the record | Potency, µM (series often up to 37.9 µM), without a hit: top-dose activity change, negative = inhibition, hits mostly inhibitors | 1.2% of 300,000 active; active means well fitted inhibition curve with a large enough effect; inconclusive means small, poorly fitted or top-dose-only effect, or effect the other way; inactive means flat fitted curve, though single readings scatter; tested in HEK293 cells; also: % is scaled to controls: 0 for no effect and ±100 for the full control effect; nearly all actives have a fitted effect of over 50% in size; luciferase read-out
StopGo reporter – lowers the luciferase signal of an FMDV 2A StopGo reporter. human cells with a luciferase reporter of 2A StopGo recoding; control for the full effect not named in the record. Potency, µM (doses to about 57.9 µM), inactives show at the highest dose signal change, negative = less light. 1.2% of 410,000 active; active = well fitted falling curve with a large enough effect; inconclusive = small, poorly fitted or top-dose-only effect; inactive = no such curve, though single readings can be large or run the other way; tested in HEK293T cells; also: % is scaled to controls: 0 for no effect and ±100 for the full control effect; nearly all actives have a fitted effect of over 45% in size; luciferase light after 4 h
Cruzain noTriton – inhibitors of Trypanosoma cruzi cruzain without detergent; purified cruzain, Z-FR-AMC fluorescence, no detergent; 2.3% of 200,000 active; P25779; Potency, µM, for the others: max response, negative = inhibition, most hits filed as inhibitors;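 also: plate controls were enzyme without inhibitor for no effect and buffer without enzyme for full effect; nearly all actives have a fitted effect of over 40% in size; top concentration of the series not given in the record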
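Detergent-free condition (0.00005% Triton X-100) in acetate buffer pH 5.5 with DTT. 1.5 nM enzyme and compound were pre-mixed 15 min, then 2 uM Z-FR-AMC substrate added; reaction progress from fluorescence change between first and third reads (60 s).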
The depositor's hits bear a star; ? = inconclusive; / = not tested or not shown; & = joins results of further samples; [ ] = dose if it differs, or a comment. Unless noted, calls follow the shape of the dose curve; as a rule, active = well fitted curve in the direction sought with a large enough effect; inconclusive = small, poorly fitted or top-dose-only effect, or another doubt; inactive = no such curve, though single readings can be large; an effect the other way counts as inactive or inconclusive. Potency is read from the fitted curve at half-maximal effect.

Each structure is followed by: MARV entry inh, NS1 inh, SARS PLpro yeast, Cruzain inh Det, RE007 growth inh, LASV entry inh, StopGo reporter, Cruzain noTriton
1: CCOC(=O)N1CCN(C(=O)CSc2nnc(C3COc4ccccc4O3)o2)CC1 (stereo not given)
  5%, -11%, -5%, 4.3%, 11%, /, -22%, -10%
2: COc1ccc(S(=O)(=O)N2CCC(C(N)=O)(N3CCCCC3)CC2)cc1
  /, 1%, 4%, 0.8%, 0%, /, -26%, 2%
3: COc1cccc(NC(=O)c2oc3ccccc3c2NC(=O)c2ccc(C(F)(F)F)cc2)c1
  5%[46.1 µM], /, /, -0.9%, /, 21%[46.1 µM], 3%, ?
4: CCNC(=O)C1CCCN(c2ncnc3onc(C)c23)C1 (stereo not given)
  /, /, /, -1.2%, /, ?, -7%, -6%
5: CCc1nn(-c2ccccc2)c2nc(-c3cccc(OC)c3)c3cc(OC)c(OC)cc3c12
  /, /, /, 2.3%, /, 2%[46.1 µM], -11%, 4%
6: COc1cccc(-n2ccnc2SCC(=O)N2CCCc3ccccc32)c1
  12%, -6%, 1%, 1.8%, 31%, -2%, -4%, 2%
7: Cc1oc(C(=O)O)cc1CSCc1ccoc1C(=O)O
  7%, 3%, 8%, -14%, 2%, 15%, -3%, 2%
8: C=CCN(CC=C)CC(=O)Nc1cccc(Oc2cnccn2)c1
  -1%[46.1 µM], 0%, 1%, /, 3%, 9%[46.1 µM], -8%, /
9: CC(C)N1CCN(Cc2nc3c(s2)CCCC3)CC1CCO (stereo not given)
  ?, 3%, -1%, /, 7%, 4%, -6%, /
10: Cc1ccc2c(c1)C(c1ccccc1)N(C(=O)c1c(F)cccc1Cl)CC(=O)N2 (stereo not given)
  /, 4%, 0%, /, 6%, /, 29%, /
11: COCCOC1CCN(Cc2cn(Cc3ccccc3)nc2-c2cc3ccccc3o2)CC1
  /, -5%, 0%, /, -14%, /, -15%, /
12: Cc1cccc(/C=C2/C(=O)/C(=C/c3ccccc3C)C3CCC2N3C)c1 (stereo not given)
  6%, -4%, 2%, -3.6%, -9%, -10%, -12%, -9%
13: CCOc1ccc(CC2CCC(=O)NC2=O)cc1 (stereo not given)
  0%, 1%, 1%, 3.2%, 7%, /, 0%, -15%
14: COc1ccccc1-n1cnc2sc(C)c(C)c2c1=O
  /, -2%, 1%, /, -3%, /, -29%, /
15: COc1ccc(-c2noc(N3CCC(C(=O)Nc4ccccc4Cl)CC3)n2)cc1
  /, 5%, -8%, /, -3%, /, ?, /
16: COc1ccccc1C(=O)NC(=Nc1nc2ccccc2o1)NC(=O)c1ccccc1OC
  -14%[46.1 µM], -4%, -1%, 4.2%, -3%, 0%[46.1 µM], -4%, ?
17: COC(=O)COc1ccc(S(=O)(=O)NCc2cccnc2)cc1
  20%, -3%[9.22 µM], 1%, 3.2%, 10%, 5%, /, -5%
18: Cc1ccc(-c2cc(C(=O)O)c3ccccc3n2)c(C)c1
  /, 7%, 1%, /, 2%, /, 40%[activator], /
19: CCc1ccc(CN(C)C(=O)CCc2nc3ccccc3n(-c3ccc(OC)cc3)c2=O)cc1
  10µM*, /, -8%, /, 5%, 14µM*, ?, /
20: O=C(c1ccc(F)cc1)N1CCC(c2ccccc2)C1 (stereo not given)
  -14%[46.1 µM], -4%, 1%, /, -15%, -8%, 36%[activator], /

Exported as tab-separated lines: 5 of the compounds above
no.	smiles	MARV entry inh	NS1 inh	SARS PLpro yeast	Cruzain inh Det	RE007 growth inh	LASV entry inh	StopGo reporter	Cruzain noTriton
6	COc1cccc(-n2ccnc2SCC(=O)N2CCCc3ccccc32)c1	12%	-6%	1%	1.8%	31%	-2%	-4%	2%
7	Cc1oc(C(=O)O)cc1CSCc1ccoc1C(=O)O	7%	3%	8%	-14%	2%	15%	-3%	2%
8	C=CCN(CC=C)CC(=O)Nc1cccc(Oc2cnccn2)c1	-1%[46.1 µM]	0%	1%	/	3%	9%[46.1 µM]	-8%	/
9	CC(C)N1CCN(Cc2nc3c(s2)CCCC3)CC1CCO (stereo not given)	?	3%	-1%	/	7%	4%	-6%	/
10	Cc1ccc2c(c1)C(c1ccccc1)N(C(=O)c1c(F)cccc1Cl)CC(=O)N2 (stereo not given)	/	4%	0%	/	6%	/	29%	/

Continuation.
Each structure is followed by: MARV entry inh, NS1 inh, SARS PLpro yeast, Cruzain inh Det, RE007 growth inh, LASV entry inh, StopGo reporter, Cruzain noTriton
21: Cc1sc2ncnc(Oc3ccc(-n4ccnc4)cc3)c2c1C
  ?, -123%, -17%, -3.6%, ?, -5%, ?, -19%
22: Cc1ccc(C(=O)OCC(=O)Nc2ncc(C(F)(F)F)cc2Cl)cc1NC(=O)c1ccco1
  2%, -6%, 6%, -2.4%, -5%, 10%, -4%, 4%
23: CCC(C)n1c(O)c(/C=N/N2CCOCC2)c(=O)[nH]c1=S (stereo not given)
  12%, 9%, -6%, -12%, 2%, 13%, -7%, -4%
24: COc1ccc(-c2cn(-c3ccc(Cl)cc3)c3[n+]2CCCCC3)cc1
  -18%, -2%, 0%, /, -1%, ?, -16%, /
25: COc1ccc(C(CC(=O)NCc2ccccc2)Sc2n[nH]c(-c3ccc(Cl)cc3)n2)cc1 (stereo not given)
  -3%, 11%, 10%, 1.4%, 4%, 0%, -1%, ?
26: Cc1ccc2c(c1)NC(=O)C(CC(=O)NCCN(CC(C)C)CC(C)C)O2 (stereo not given)
  /, -6%, 3%, 0.2%, -5%, /, -14%, -9%
27: CN(C)S(=O)(=O)c1ccc2[nH]cc(/C=C/c3nc4ccccc4c(=O)n3-c3ccccc3)c2c1
  -12%, 3%, 2%, 33%[activator], -13%, ?, -9%, -23%
28: CC(NC(=O)c1cccc(C(F)(F)F)c1)C(c1ccccc1)N1CCOCC1 (stereo not given)
  -17%[46.1 µM], /, 0%, /, -12%, -7%, -23%, /
29: CCOc1ccccc1C1C(C(=O)Nc2ccccc2)=C(C)Nc2c(C(=O)Nc3ccc(F)cc3)cnn21 (stereo not given)
  ?, /, /, -9.7%, /, -23%[46.1 µM], -11%, ?
30: CCOC(=O)C1=C(CSc2nccn2C)NC(=O)NC1c1cc(C)ccc1C (stereo not given)
  -15%, 11%, 4%, 1.8%, 0%, -2%, -7%, 4%
31: O=C1C=C(Nc2ccc(O)cc2)C(=O)c2ccccc21
  ?, -34%, -1%, /, ?, ?, 10%, /
32: CCCCn1cnc2c(SCc3ccccc3)nc(N)nc21
  -22%[46.1 µM], /, /, /, 2%, 12%[46.1 µM], 28%, /
33: COc1ccc(OC)c(NC(=O)CN(C)S(=O)(=O)c2ccc(Cl)cc2)c1
  /, -4%, 0%, /, -12%, /, 2%, /
34: COc1ccccc1/C=C/C=C(\C#N)C(=O)NC(C)c1ccccc1 (stereo not given)
  ?, 14%, -6%, /, 14%, -29%, ?, /
35: O=c1c2cc(F)ccc2[nH]c(=S)n1CCCN1CCOCC1
  11%, 4%, -1%, -0.6%, -5%, -11%, 0%, -12%
36: COc1ccc(CNC(=O)CN(Cc2cccs2)C(=O)CCC(=O)Nc2ccccn2)cc1
  -27%, -8%, 0%, /, 4%, 1%, -13%, /
37: O=C(O)c1cccc(NC(=O)c2cn(-c3ccccc3)nc2-c2ccncc2)c1
  /, 5%, 1%, /, -4%, /, -3%, /
38: Cc1cc(NCCO)nc(N2CCOCC2)n1
  -3%, 10%, 4%, 5.8%, 4%, 4%, 8%, -5%
39: CS(=O)(=O)c1ccc(C(=O)OCC(=O)NC(=O)C2CCCCC2)cc1[N+](=O)[O-]
  ?, /, -1%, /, -9%, ?, 22µM*, /
40: CCCCCN(C(=O)CCC(=O)OCC(=O)c1ccc(C(C)CC)cc1)c1c(N)n(CCCC)c(=O)[nH]c1=O (stereo not given)
  ?, /, 2%, /, -12%, ?, 54%[activator], /
41: COC(=O)c1ccc(NC(=O)c2c(-c3ccccc3)c(-c3ccccc3)nn(C)c2=O)cc1
  -15%[46.1 µM], /, /, -0.9%, /, 25%[46.1 µM], -16%, 12%
42: COc1ccc(S(=O)(=O)N(C)C)cc1NCC(=O)Nc1cccc2ccccc12
  -13%[46.1 µM], /, /, /, -8%, 5%, -5%, /
43: OCCN1CCOCCN(CCO)CCN(CCO)CC1
  ?, 6%, 8%, 4.0%, 4%, -2%, 3%, 6%
44: Cc1cc2c(c(=O)n1Cc1cccnc1)C(c1ccc(F)cc1)C(C#N)=C(N)O2 (stereo not given)
  1%, -3%, -8%, 1.7%, -11%, 1%, -20%, 2%
45: COC(=O)c1c(C(=O)NCc2ccccc2)ncn1CC(O)COc1ccccc1 (stereo not given)
  -10%[46.1 µM], -12%, 8%, 1.2%, 6%, 1%, 18%, 21%
46: CCN(C(=O)c1ccc2c(c1)OCO2)C1CCS(=O)(=O)C1 (stereo not given)
  -3%, /, 0%, /, 8%, ?, -15%, /
47: COCc1c(C(=O)N/N=C\c2cccnc2)nnn1-c1nonc1N
  -2%[46.1 µM], -6%, 1%, /, -16%, 1%[46.1 µM], 4%, /
48: Cc1ccc(N/C=C(/C#N)c2ccsc2)cc1
  -26%, -42%, /, -5.6%, ?, -27%, 10%, -9%
49: COc1ccc(/C=C2\N=C(c3c(-c4ccccc4)noc3C)OC2=O)cc1OC
  4%, 7%, 1%, 4.9%, 9%, 3%, -14%, 16%
50: CCOc1ccc2[nH]c(=O)c(C(c3nnnn3C3CCCCC3)N3CCN(C)CC3)cc2c1 (stereo not given)
  11%, 7%, 11%, -1.3%, 10%, -5%, 6%, ?
51: CN1CCN(Cc2c(O)ccc3c(-c4ccccc4)cc(=O)oc23)CC1
  2%&2%, 10%, -3%, -9.1%, -17%, 11%, 11%, -25%
52: CC(=O)c1ccc(Nc2ncnc3c2oc2ccccc23)cc1
  ?, ?, 1%, -0.7%, 6%, -12%, 52%[activator], -18%

Compound activity (PubChem BioAssay)
